# High-throughput results as filed in PubChem BioAssay.
# PABP polyA inh: blocks human PABP binding to poly(A) RNA; 1% of 290,000 active; inhibition, % at 35 µM; fluorescence polarization; P11940;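 active = 50% or more with normal probe brightness, or confirmed in later tests; inconclusive = above 50% with abnormal brightness, or retests that disagree; inactive = below 50% or failed in later tests; about a fifth of its hits are not listed in these tables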;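 also: calls also rest on retests at 20 µM and on dose response follow-up; controls were probe without protein and protein plus probe with vehicle; some compounds called inactive have numbers as strong as hits; many hits fall short of the cut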
# Target sequence (P11940 whole entry, looked up): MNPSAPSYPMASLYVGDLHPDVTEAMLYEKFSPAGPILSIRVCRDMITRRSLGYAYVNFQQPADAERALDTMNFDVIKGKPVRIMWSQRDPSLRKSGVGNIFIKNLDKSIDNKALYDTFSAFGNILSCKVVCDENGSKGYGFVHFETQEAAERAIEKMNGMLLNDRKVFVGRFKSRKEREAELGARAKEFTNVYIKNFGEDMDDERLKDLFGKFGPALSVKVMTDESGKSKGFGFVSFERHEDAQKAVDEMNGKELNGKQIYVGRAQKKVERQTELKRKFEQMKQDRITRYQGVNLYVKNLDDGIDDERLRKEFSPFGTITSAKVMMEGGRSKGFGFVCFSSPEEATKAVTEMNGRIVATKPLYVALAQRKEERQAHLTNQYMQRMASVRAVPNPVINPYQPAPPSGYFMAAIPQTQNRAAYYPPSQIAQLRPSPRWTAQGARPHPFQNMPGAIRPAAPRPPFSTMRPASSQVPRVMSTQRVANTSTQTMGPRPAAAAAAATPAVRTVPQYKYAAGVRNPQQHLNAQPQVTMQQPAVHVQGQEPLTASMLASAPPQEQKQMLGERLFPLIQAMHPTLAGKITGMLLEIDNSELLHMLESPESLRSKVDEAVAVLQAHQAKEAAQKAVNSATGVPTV
# eIF4H FP inh: inhibitors of RNA binding by human eIF4H; eIF4H fluorescence polarization binding assay; inhibition, % at 35 µM; 0.94% of 290,000 active; AID 2012;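 active = 50% or more with normal probe brightness, or confirmed in later tests; inconclusive = above 50% with abnormal brightness, or retests that disagree; inactive = below 50% or failed in later tests; about a fifth of its hits are not listed in these tables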;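 also: calls also rest on retests at 20 µM and on dose response follow-up; 0% = protein and probe with vehicle and 100% = probe without protein; strong numbers were not always called active; many hits fall short of the cut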
# HIV Env fusion: inhibitors of HIV Env-mediated cell fusion; HeLa-JRFL Env/CEM21 cell fusion, luciferase; inhibition, % at 12.3 µM; 1.1% of 360,000 active; AID 651610;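 active = mean replicate inhibition score of at least 50 and every replicate individually at or above 50; inconclusive = only one of the two criteria met; inactive = mean below 50 and not all replicates reaching 50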;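 also: 0% = plate neutral controls and 100% = maraviroc near 300 nM; one replicate is shown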
# MT1-MMP act inh: blocks activation of human MT1-MMP; P50281; HT1080 RFP-PRO-GFP cells, GFP/RFP ratio fluorescence, overnight; percent of plate control window, DMSO zero; GFP/RFP ratio change, % at 20 µM; 0.061% of 360,000 active; AID 651647;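 active = GFP/RFP ratio change of at least 30% with cell ATP level not reduced by more than half and red fluorescence within 50% of control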; also: strong numbers were not always called active
#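 Assay system: RFP-PRO-GFP reporter HT1080 cells; read-out basis: GFP/RFP fluorescence ratio; benchmarks: DMSO wells and RFP-L50D-GFP cells; doses: 20 µM single dose, 1% DMSO; schedule: overnight cell settling, then overnight compound exposure, 37 °C, 5% CO2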
# Rce1 inhib: inhibitors of yeast Ras-converting enzyme; Q03530; yeast membranes, quenched prenylated peptide cleavage fluorescence; calls only; 0.27% of 290,000 active; AID 2563;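 active = fall in fluorescence gain of 50% or more versus controls, with final raw signal at or below 3038400; inconclusive = same 50% fall but final raw signal above 3038400; inactive = fall in fluorescence gain under 50%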;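 also: plate controls were neutral control wells for no effect and wells lacking membranes for full effect; tested at 10 µM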
# Target sequence (Q03530 whole entry, looked up): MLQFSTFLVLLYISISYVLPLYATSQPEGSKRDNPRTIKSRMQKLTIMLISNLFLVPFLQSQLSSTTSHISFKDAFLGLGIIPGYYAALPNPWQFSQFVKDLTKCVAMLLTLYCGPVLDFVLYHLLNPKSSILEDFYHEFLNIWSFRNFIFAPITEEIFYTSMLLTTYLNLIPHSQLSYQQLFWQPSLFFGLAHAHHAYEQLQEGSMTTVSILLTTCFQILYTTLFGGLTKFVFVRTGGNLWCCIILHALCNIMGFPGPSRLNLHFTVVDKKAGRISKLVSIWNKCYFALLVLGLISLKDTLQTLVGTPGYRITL
# CSC inhib: blocks cancer stem cells; cancer stem cell-like cells viability, luminescence; inhibition, % at 7.5 µM; 1.1% of 300,000 active; AID 2717;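 active = mean at 75% or more and at least half the replicates too; inconclusive = mean and replicates disagree; tested in HMLE shEcad cells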;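 also: 0% = median of negative and 100% = median of positive control wells; the first replicate is given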
# UUG fidelity: alters start codon recognition fidelity in yeast; S. cerevisiae UUG-firefly luciferase reporter, luminescence/redox ratio; activity score, % at 18.7 µM; 0.13% of 350,000 active;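 active = replicate mean at a twofold rise or more, about +100% in these data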;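 also: firefly luciferase made from a UUG start codon reports start codon fidelity; reporter light over untreated wells divided by growth signal over untreated wells; some hits fall short of that in this replicate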
# eIF4H FP inh retest: further read-out of eIF4H FP inh, marked with its call; inhibition, %; compound at 20 µM; confirmation average;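 mean of two retest wells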
# PABP polyA inh retest: recorded beside PABP polyA inh, whose call it bears; inhibition, %; compound at 20 µM; confirmation repeats;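 mean of two retest wells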
# MT1-MMP act inh RFP: recorded beside MT1-MMP act inh, whose call it bears; RFP signal change, %; measured here: RFP expression control read;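 0 = vehicle wells; hits needed this value within 50% of zero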
# Active calls of the source: *; i = inactive; ? = inconclusive; . = no result given.
SMILES,PABP polyA inh,eIF4H FP inh,HIV Env fusion,MT1-MMP act inh,MT1-MMP act inh RFP,Rce1 inhib,CSC inhib,UUG fidelity,others
COc1ccc(C(CNC(=O)C(CCSC)NC(=O)c2ccccc2OC)N2CCCCC2)cc1 (stereo unspecified),6,-8,11,-4,3,i,.,-11,
COc1cccc2cc(-c3cn4cccc(C)c4n3)c(=O)oc12,.,.,-139,4,-6,i,-7,-13,
COc1ccc(OC)c(CNC(=O)C2CCN(S(=O)(=O)N3CCC(C)CC3)CC2)c1,15,-10,-19,-2,-3,i,-12,7,
CCCCOc1ccc(C(=O)OC2CC(C)N(C)CC2C)cc1 (stereo unspecified),6,-4,-11,0,-6,i,75,-4,
O=C(O)CCc1ccc(-c2cccs2)n1CC1CCCO1 (stereo unspecified),10,8,1,-11,3,i,6,-12,
COc1ccc(C(=O)Nc2ccc(N3CCCC3)cc2)cc1Br,-5,1,-11,2,2,i,-2,-18,
O=C(COC(=O)c1ccc[nH]c1=O)NCCCc1ccccc1,.,.,.,-1,-1,.,-12,-20,
CSc1c[n+]2c(n1C)CCC2,41,7,.,-4,2,i,-3,-16,
CN(Cc1ccccc1)c1cc(Cl)nc(N)n1,3,-4,-4,1,-1,i,-12,.,
CC1CN(CC(=O)NCc2ccc(F)cc2)CC(C)O1 (stereo unspecified),0,-6,0,-1,2,i,-14,-12,
CC(=O)N1c2ccc(S(=O)(=O)N(C)CC(=O)NC3CCCCC3C)cc2CC1C (stereo unspecified),.,.,.,2,-2,i,-5,6,
Cc1ccc(-n2c(C)cc(C(=O)COC(=O)c3c(C)noc3C)c2C)cc1,-7,2,-29,-4,-20,i,4,-12,
CCOC(=O)N1CCN(CC(=O)N2c3ccccc3Sc3ccccc32)CC1,-2,7,16,-10,-2,i,13,10,
CC1(c2ccccc2)NC(=O)N(CC(=O)Nc2ccccc2N2CCCC2)C1=O (stereo unspecified),.,.,.,-1,-2,i,-5,.,
CC(=O)N1CCc2cc(S(=O)(=O)NC(C(=O)N3CCN(c4ccccc4F)CC3)C(C)C)ccc21 (stereo unspecified),.,.,-28,-3,1,i,0,-4,
O=C(Nc1ccncc1)c1cccc2ccccc12,-9,-6,6,6,-4,i,-5,-18,
Fc1ccc(/C=N/NC(=S)Nc2ccc(Cl)cc2)cc1F,-11,5,-14,7,2,i,.,-24,
Cc1cc(/C(=N/O)C(C)(C)NO)ccc1Cl,-12,-9,-7,14,-1,i,-3,-9,
CC(=O)n1c2c(c3ccccc31)OC(N)=C(C#N)C2c1ccc(C(C)C)cc1 (stereo unspecified),-11,-2,.,-152,0,i,12,.,
CC1(C)CC(=O)C(C2C3=C(CC(C)(C)CC3=O)Oc3ccccc32)C(=O)C1 (stereo unspecified),5,4,2,-2,1,i,3,.,
Nc1cc(OC(=O)c2c(F)cccc2Cl)nn1S(=O)(=O)c1ccccc1,1,4,-8,0,1,i,2,-25,
COc1cccc(NC(=O)CN(C)C(=O)c2cc(S(=O)(=O)N3CCCCC3)ccc2Cl)c1,.,.,-1,3,-3,i,0,.,
Cn1cccc1CC(=O)N/N=C/c1ccc([N+](=O)[O-])cc1,5,-12,-3,5,2,i,11,-12,
CCCNC(=O)c1ccc2c(=O)n3c(-c4ccc(C)cc4)csc3nc2c1,10,28,-63,-1,1,i,3,51,
O=C(C1CC=CCC1)N1CCCCCC1 (stereo unspecified),.,.,1,1,3,.,.,-10,

# The list goes on, starting with the last 3 of the part before.
SMILES,PABP polyA inh,eIF4H FP inh,HIV Env fusion,MT1-MMP act inh,MT1-MMP act inh RFP,Rce1 inhib,CSC inhib,UUG fidelity,others
Cn1cccc1CC(=O)N/N=C/c1ccc([N+](=O)[O-])cc1,5,-12,-3,5,2,i,11,-12,
CCCNC(=O)c1ccc2c(=O)n3c(-c4ccc(C)cc4)csc3nc2c1,10,28,-63,-1,1,i,3,51,
O=C(C1CC=CCC1)N1CCCCCC1 (stereo unspecified),.,.,1,1,3,.,.,-10,
COc1ccc(NCc2nnc(SCc3ccc(Cl)cc3)n2-c2ccccc2)cc1,-2,4,8,3,0,i,3,.,
O=C(COC(=O)Cc1c[nH]c2ccccc12)Nc1ccccc1,1,1,16,-8,-4,i,-5,.,
Cc1ccc(C(=O)NCC(=O)N2CCc3ccccc3C2)cc1C,-9,-6,4,3,1,i,2,-14,
O=C(CN(c1ccc(F)cc1)S(=O)(=O)c1ccc2c(c1)OCCO2)N1CCOCC1,-1,-7,-16,-1,2,i,5,-9,
O=C(NCc1ccncc1)C(=O)NCC1OCCN1S(=O)(=O)c1ccccc1 (stereo unspecified),.,.,23,5,0,.,.,-7,
COc1cc(C(=O)NCCc2ccc(S(N)(=O)=O)cc2)ccc1OCc1c(C)noc1C,.,.,.,1,2,.,-3,-6,
Cc1ccc(S(=O)(=O)N(C)C)cc1NC(=O)C(C)NC(C)c1cccs1 (stereo unspecified),-3,-4,-1,5,7,i,23,-10,
O=C(CSc1nc2c(c(=O)[nH]1)CCC2)Nc1cccc(Cl)c1,6,-6,18,2,0,i,.,-15,
CNc1cncc(-c2cccc(C(=O)N3CCOCC3)c2)n1,.,.,5,-4,-3,.,.,20,
COc1ccc(C(=O)Nc2ccccc2C(=O)N/N=C/c2ccncc2)cc1OC,-8,-10,-80,2,1,i,36,.,
CCc1ccccc1N1CCN(S(=O)(=O)c2ccc(F)c(C)c2)CC1,-2,0,10,-5,-4,i,10,.,
COCCN(C(=O)c1ccccc1OC)c1nnc(C)s1,-2,-3,-21,-3,-1,i,-11,-26,
CCN1C(=O)S/C(=C/c2ccc(Sc3nc4ccccc4[nH]3)o2)C1=O,-3,54,62*,-15,-18,i,17,-18,eIF4H FP inh retest=4;PABP polyA inh retest=9
CNc1c(N)c(=O)oc2ccccc12,7,2,-2,-7,6,i,-8,-8,
Cc1ccc(S(=O)(=O)NNC(=O)Nc2ccc(Cl)cc2)cc1,3,-10,0,6,0,i,2,-13,
Cc1cc2nc(-c3ccccn3)c(-c3ccccn3)nc2cc1C,6,5,10,0,2,i,.,-22,
O=C(NCCc1ccc(Cl)cc1Cl)c1cc([N+](=O)[O-])c[nH]c1=O,4,2,-9,-3,-5,i,?,-6,
Cc1ccc(NC(=O)CSc2n[nH]c(N)n2)cc1S(=O)(=O)N1CCOCC1,2,-6,-8,-3,4,i,-13,-17,
COc1ccc(C)cc1-n1nnnc1SCC1CCCO1 (stereo unspecified),8,1,.,2,5,i,-16,.,
COc1cc(OC)cc(C(=O)NC(C(=O)Nc2ccc3c(c2)CCC3)C(C)C)c1 (stereo unspecified),.,.,1,-29,-24,.,.,-13,
O=C(CN(c1ccccc1Cl)S(=O)(=O)c1ccccc1)N/N=C/c1ccccc1C(=O)O,-1,-2,-2,6,13,i,-2,.,
CCNC(=O)CNC(=O)c1nn(Cc2ccccc2)c(=O)c2ccccc12,2,2,-3,-1,6,i,-13,-15,
O=S(=O)(c1ccc(Cl)cc1)N1CCC(c2nc3ccccc3[nH]2)CC1,2,-2,4,-4,-8,i,18,-14,
Cc1cc(OCC(=O)Nc2ccccn2)c2c(C)cc(=O)oc2c1,.,.,-5,0,-4,i,-31,4,
C/C(CCc1oc2c(Br)cc(Br)cc2c1-c1ccc(C)o1)=N\O,-7,0,.,-17,-1,i,45,-13,

# (cont.)
SMILES,PABP polyA inh,eIF4H FP inh,HIV Env fusion,MT1-MMP act inh,MT1-MMP act inh RFP,Rce1 inhib,CSC inhib,UUG fidelity,others
O=C(NCCS(=O)(=O)N1CCN(c2cccc(Cl)c2)CC1)c1ccco1,.,.,.,0,0,i,0,5,
CCOC(=O)c1sc2ncn(CC(=O)N(CC)CC)c(=O)c2c1C,-4,2,.,0,-7,i,0,-2,
Cc1cccc(C)c1NC(=O)c1csc(COCCO)n1,.,.,3,-2,-1,.,.,-13,
O=C(COC(=O)c1n[nH]c2ccccc12)Nc1ccccc1F,.,.,-43,3,4,.,8,-15,
Cc1ccc(OCC(=O)NNC(=O)C2CSC3(C)CCC(=O)N23)cc1 (stereo unspecified),.,.,13,-2,-2,i,-1,-13,
CC(C)NC(=O)Cn1nnc(-c2cccc(NC(=O)c3ccccc3F)c2)n1,2,-2,.,-5,-4,i,-3,-6,
CC(C)CCN(C(=O)c1csnn1)C(C(=O)NC1CCCC1)c1ccc(F)cc1 (stereo unspecified),3,-2,76*,-3,-2,i,-8,8,
CCOC(=O)C1CCN(c2c(N3CCCCCC3)c(=O)c2=O)CC1,-14,-14,4,-2,1,i,-5,-1,
O=C(O)C1CCCCC1C(=O)NCCCn1ccnc1 (stereo unspecified),-4,3,.,-2,0,i,.,.,
COc1cc(/C=N/Nc2nc3ccccc3o2)cc(OC)c1O,3,14,-50,0,4,i,-13,-23,
COc1ccccc1CC1(C)C(=O)Nc2c(Cl)cccc21 (stereo unspecified),.,.,15,0,-3,.,.,-10,
Cc1ccc(-c2nnc(N3CCOCC3)c3ccccc23)cc1S(=O)(=O)N(C)C,10,-11,-3,1,-3,i,.,1,
O=C(CNC(=O)[C@@H]1Cc2ccccc2CN1)NC1CCCC1,-8,-2,0,2,2,i,-12,-12,
O=C(NCCCN1CCN(c2cccc(Cl)c2)CC1)c1nc(-c2ccncc2)no1,-2,-6,8,3,-4,i,-4,-22,
O=c1cc(-c2ccccc2Cl)oc2c(NS(=O)(=O)c3cccs3)ccc(O)c12,-2,-10,12,-3,-6,i,19,-3,
CC12CN3CC(C)(CN(C1)C3c1ccc3c(c1)OCO3)C2 (stereo unspecified),5,-5,5,1,4,.,6,.,
CCOc1cccc(N2C(=O)CC(N3CCC(C(N)=O)(N4CCCCC4)CC3)C2=O)c1 (stereo unspecified),0,7,.,1,3,i,-9,-18,
CC(=O)Nc1ccccc1-c1nc2ccc(C(=O)N3CCN(c4cc(C)ccc4C)CC3)cc2[nH]c1=O,-8,-12,-8,4,-5,i,2,-8,
CCc1ccc(CCC(=O)Nc2ccc(Br)cc2)o1,-13,1,5,8,5,i,17,-2,
O=C1c2cccc3c(N4CCOCC4)c([N+](=O)[O-])cc(c23)C(=O)N1c1cccc2ccccc12,12,-6,8,-13,-4,i,15,.,
COc1ccc(C2c3ccsc3CCN2C(=O)NC(C)(C)C)cc1 (stereo unspecified),10,3,-17,-1,-3,i,4,.,
COC(=O)Cn1c(=O)c2c(nc(Br)n2Cc2ccccc2Cl)n(C)c1=O,-2,-2,7,2,1,i,.,-2,
CC(C)(C)NC(=O)c1ccccc1-c1nc(-c2ccccc2Cl)no1,-9,-4,.,3,0,i,-7,0,
CCCOc1ccc(CC(=O)NNC(=S)Nc2ccccc2)cc1Br,-5,0,.,-1,-1,i,5,-36,
O=C(Cn1cnc([N+](=O)[O-])n1)N/N=C/c1ccc2ccccc2c1,-1,-14,8,5,0,i,-3,.,
COc1cc(S(=O)(=O)N(Cc2ccccn2)Cc2ccccc2Cl)ccc1-n1cnnn1,-1,-9,-12,2,1,i,-3,-12,
CC(C)c1ccc(NC(=O)C(=O)C2C(=O)Nc3ccccc32)cc1 (stereo unspecified),0,10,2,-2,7,i,-5,.,
[O-]/[N+](=C\c1ccccc1)c1ccccc1,.,.,-29,4,2,.,-10,-15,

# Random excerpt: 2 records from the list.
SMILES,PABP polyA inh,eIF4H FP inh,HIV Env fusion,MT1-MMP act inh,MT1-MMP act inh RFP,Rce1 inhib,CSC inhib,UUG fidelity,others
O=C(COC(=O)c1n[nH]c2ccccc12)Nc1ccccc1F,.,.,-43,3,4,.,8,-15,
CC(C)NC(=O)Cn1nnc(-c2cccc(NC(=O)c3ccccc3F)c2)n1,2,-2,.,-5,-4,i,-3,-6,
